# TRPML1 blocker – inhibitors of human TRPML1 channel; TRPML1-inducible cells, Ca2+ dye fluorescence, FDSS; stronger effect = lower value; inhibition of EC80 agonist-evoked calcium signal; activity change, negative = inhibition, % (no concentration beside the values); 390,000 tested, 0.02% active; in the data active means activity change below about -50%; inconclusive means about -30% to -50%; inactive means above about -30%;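 also: stimulus is agonist 54-4 at its EC80 concentration; % is scaled to controls: 0 for no effect and ±100 for the full control effect; compound concentration not given in the record; the text of the record puts the active cut at -80%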
#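 TRPML1-DL cells, Tet-induced overnight (~16 h, 37 °C) at 1,500 cells/well, were loaded with Ca8 no-wash dye plus quencher for 45-90 min at room temperature. Compounds were pinned during FDSS kinetic reading; agonist 54-4 at EC80 (4 uM final) then added.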
# TRPV1 PAM – potentiators of human vanilloid receptor 1 (TRPV1); Q8NER1; TRPV1-expressing cells, Fluo-8 calcium influx, capsaicin EC20 potentiation; host cell line not named in the record; control for the full effect not named in the record; potentiation, % at 8.33 µM; 320,000 tested, 0.02% active; AID 540277; active means potentiation above 80%; inconclusive means 30% to 80%; inactive means below 30%; also: 0% is about no effect
# Target sequence (Q8NER1 whole entry, looked up): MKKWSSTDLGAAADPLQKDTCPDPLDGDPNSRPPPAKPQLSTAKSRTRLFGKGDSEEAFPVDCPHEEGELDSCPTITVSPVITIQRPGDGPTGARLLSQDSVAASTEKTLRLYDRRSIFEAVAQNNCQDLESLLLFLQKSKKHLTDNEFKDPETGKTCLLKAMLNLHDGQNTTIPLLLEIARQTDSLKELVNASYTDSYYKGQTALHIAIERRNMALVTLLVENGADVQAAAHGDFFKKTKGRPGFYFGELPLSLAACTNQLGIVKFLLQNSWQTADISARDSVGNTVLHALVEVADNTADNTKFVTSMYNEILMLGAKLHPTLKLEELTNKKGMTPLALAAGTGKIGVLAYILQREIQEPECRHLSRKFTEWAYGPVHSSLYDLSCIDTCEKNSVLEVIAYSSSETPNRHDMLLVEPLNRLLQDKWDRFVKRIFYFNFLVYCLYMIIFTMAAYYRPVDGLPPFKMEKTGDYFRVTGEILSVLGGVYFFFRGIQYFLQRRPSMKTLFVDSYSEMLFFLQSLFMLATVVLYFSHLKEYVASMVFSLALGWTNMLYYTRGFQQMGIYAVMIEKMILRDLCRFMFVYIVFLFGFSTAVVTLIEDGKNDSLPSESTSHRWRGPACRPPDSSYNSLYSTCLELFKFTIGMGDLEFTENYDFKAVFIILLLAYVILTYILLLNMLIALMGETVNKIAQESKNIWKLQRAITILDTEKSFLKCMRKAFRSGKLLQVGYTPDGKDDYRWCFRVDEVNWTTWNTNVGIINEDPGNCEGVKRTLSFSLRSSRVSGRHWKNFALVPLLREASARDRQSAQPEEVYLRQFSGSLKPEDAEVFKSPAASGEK
#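 Fluo-8 calcium influx in TRPV1-expressing cells, kinetic read (ex 480/em 520 nm). Compound added and read 3 min for agonist activity, followed by capsaicin at EC20 final and 2 min further read for enhancement.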
# Menin-MLL FL inh – displaces fluorescein MLL peptide from human menin; Fluorescence polarization, fluorescein-MLL peptide displacement from menin; FP activity change, % at 61.4 µM; 290,000 tested, under 10 active; AID 1766; inconclusive = falling polarisation curve, or a change in total fluorescence; inactive = total fluorescence flat and polarisation flat or rising; no compound was filed as active; the % refers to the polarisation; negative = inhibition;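 also: % of control where 0% means no effect; inhibitors lower the polarisation; unlabelled MLL peptide was the positive control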
# gsp agonist – gsp mutant agonism. Potency, µM (doses to about 76.9 µM), inactives show at the highest dose activation (cAMP increase), actives largely listed as activators. AID 624287. gsp mutant cells, cAMP HTRF, 30 min; control for the full effect not named in the record. 340,000 tested, 0.13% active; active = well fitted activation curve with a large enough effect; inconclusive = small, poorly fitted or top-dose-only effect, or another doubt; inactive = no such curve, though single readings can be large or run the other way; cell line not stated here;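 also: phosphodiesterase inhibitor Ro 20-1724 added with compounds to block cAMP breakdown; potency is read from the fitted curve at half-maximal effect; nearly all actives have a fitted effect of over 60% in size; about a fifth of the inactives were tested at one dose only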
#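 Cells in DMEM/10% FBS with G418 were pretreated with compounds in DMSO plus […] (300 uM stock) for 30 min at 37C. cAMP was measured by HTRF (cAMP-d2 plus anti-cAMP antibody-K) after 30 min at room temperature.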
# Sfp PPTase inh – Sfp phosphopantetheinyl transferase inhibition | 310,000 tested, 3.5% active | Potency, µM, inactives show max response, negative = inhibition, usual class: inhibitors | Q9F4F7 | Biochemical Sfp PPTase activity, qHTS; active = well fitted inhibition curve with a large enough effect; inconclusive = small, poorly fitted or top-dose-only effect, or another doubt; inactive = no such curve, though single readings can be large or run the other way;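 also: the enzyme is Sfp with the accession as filed and its product quenches rhodamine fluorescence; potency is read from the fitted curve at half-maximal effect; 0% = enzyme reaction without inhibitor and -100% = no enzyme wells; top concentration of the series not given in the record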
#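 Compounds were incubated with enzyme (final 15 nM) for 15 min at room temperature before substrate addition started the reaction. Fluorescence at 525 nm excitation, 598 nm emission was recorded immediately and after 30 minutes.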
# gsp antagonist – antagonizes gsp, the McCune-Albright syndrome mutation. Potency, µM (doses to about 76.9 µM), inactives show top-dose activity change, negative = inhibition, usual class: inhibitors. gsp-mutant cells, cAMP HTRF, 30 min; control for the full effect not named in the record. 340,000 tested, 0.4% active; active = falling curve of any shape with a large fitted effect; inconclusive = falling curve, mostly with a smaller effect; inactive = flat or rising curve; cell line not stated here;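 also: intracellular cAMP measured with PDE inhibitor Ro 20-1724 present during compound exposure; potency is read from the fitted curve at half-maximal effect; % is scaled to controls: 0 for no effect and ±100 for the full control effect; nearly all actives have a fitted effect of over 65% in size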
#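 HTRF cAMP read-out (cAMP-d2 plus anti-cAMP antibody-K in lysis buffer, 30 min RT). Before lysis, cells are exposed to compounds with […] for 30 min at 37C in DPBS containing Ca/Mg, BSA and Tween 20.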
# ClpP mod – qHTS Assay for Activators of ClpP; AID 651965, 2013; purified B. subtilis ClpP, FRET peptide cleavage, 20 min; 340,000 tested, 1.9% active; ATP-dependent Clp protease proteolytic subunit (Bacillus subtilis (strain 168)), P80244; Potency, µM (series often up to 57.5 µM), for inactives: at the highest dose activity change, negative = active; active = well fitted falling curve with a large enough effect; inconclusive = small, poorly fitted or top-dose-only effect; inactive = no such curve, though single readings can be large or run the other way; also: potency is read from the fitted curve at half-maximal effect; the source files actives as falling curves though it sought activators and does not explain the sign; nearly all actives have a fitted effect of over 65% in size; many hits overshoot -100%
# Target sequence (P80244 whole entry, looked up): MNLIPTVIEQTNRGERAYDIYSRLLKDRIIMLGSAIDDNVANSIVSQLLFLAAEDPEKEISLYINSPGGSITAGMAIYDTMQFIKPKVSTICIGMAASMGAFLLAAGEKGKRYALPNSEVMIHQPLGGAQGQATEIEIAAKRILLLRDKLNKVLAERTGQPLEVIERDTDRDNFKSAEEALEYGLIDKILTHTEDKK
#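 Buffer: 100 mM Tris/HCl pH8, 100 mM KCl, 0.05% low protease BSA, 2.5% glycerol, 0.01% Tween-20. ClpP 10 microg/mL final; 20 min RT; delta FRET normalized to ADEP and DMSO controls.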
# * = called active by the depositor; u = inconclusive; x = not tested or not shown; [ ] = another dose, or the depositor's remark. Compounds as they come, and some 4.9% of all compounds hit somewhere here.
SMILES,TRPML1 blocker,TRPV1 PAM,Menin-MLL FL inh,gsp agonist,Sfp PPTase inh,gsp antagonist,ClpP mod
Cc1nn(C)c(Oc2ccccc2)c1CCNS(=O)(=O)c1ccc(F)cc1,-11,-8,-4.3,-32%,10%,-7%,-1.5%
N#C/C(=C/c1cn(-c2ccccc2)nc1-c1cccc(S(=O)(=O)N2CCCC2)c1)C(=O)NCc1ccco1,30,15,4.6,u,-12%,-1%,-24%
CCOC(=O)CNC(=O)CSc1nnc(NC(=O)c2ccc3c(c2)OCO3)s1,5,-8,x,13%[15.4 µM],2%,9%,u
Cc1ccc(S(=O)(=O)CCC(=O)OCC(=O)NC(=O)c2ccccc2)cc1,21,-1,x,4%,x,0%,-13%
COC(=O)c1ccccc1NC(=O)CNC(=O)c1ccc(OC)cc1,9,6,-1.0,20%,5%,2%,x
Cn1cc(CN2CCN(c3ccc(Cl)cn3)CC2)c(-c2ccccc2F)n1,-11,9,2.6,-24%,3%,-6%,-7.9%
Cc1ccccc1OCC(=O)Nc1nc2ccccc2[nH]1,1,3,-2.3,4%[15.4 µM],11%,-10%,-17%
CSCCC(NC(=O)c1ccco1)C(=O)NCCc1ccc(Cl)cc1 (stereo not given),10,x,x,7%,x,1%,-0.9%
Cc1nnc(SCC(=O)N(C2CCCCC2)C2CCS(=O)(=O)C2)n1C (stereo not given),7,-1,x,-6%,x,13%,-0.2%
CC1CCN(c2c(NCc3ccc(C(=O)NCCc4ccc(Cl)cc4)cc3)c(=O)c2=O)CC1,0,16,0.7,19%,-29%,4%,-0.2%
CC(=O)Nc1nnc(C)s1,12,-10,-5.8,4%,13%,12%,1.5%
COc1ccccc1CN(C)C(=O)CN1CCN(C(=O)c2cccs2)CC1,6,-14,x,11%,x,-1%,-0.7%
COc1ccc(NC(=O)c2ccc(OC)c(S(=O)(=O)N3CCCCC3C)c2)cn1 (stereo not given),2,-15,x,21%,x,-4%,1.9%
OC(COc1ccc(-c2ccccc2)cc1)CN1CCCCC1 (stereo not given),-2,x,x,-20%,x,x,1.0%
CC1(C)CC(=O)c2cnc(N)nc2C1,-6,-9,-0.1,u,26%,3%,0.1%
Cc1ccccc1CN1CCC(N2CCC(C(=O)NCC3CCCO3)CC2)CC1 (stereo not given),1,2,-5.5,-41%[inhibitor],12%,-16%,-5.4%
CC(=O)c1ccc(C2CC34CN(Cc5cccc(Cl)c5)S(=O)(=O)C3CC2O4)cc1 (stereo not given),-1,x,5.5,x,19%,x,x
CCOC(=O)c1c(NC(=O)Cn2nc(C(F)(F)F)cc2C)sc(C)c1C,7,5,8.3,-5%[15.4 µM],14%,-9%,0.4%
O=[N+]([O-])c1ccccc1Oc1cnc2ccccc2n1,47,-4,1.1,-24%,11%,3%,x
CCOC(=O)c1cc(-c2ccccc2C)nn1CC1CC(c2cccnc2)=NO1 (stereo not given),27,x,x,u,x,-7%,-0.4%
CC(=O)Nc1ccc(NC(=O)CSc2nnc(-c3ccccc3)n2Cc2ccc3c(c2)OCO3)cc1,7,-3,-0.8,5%,8%,-9%,-3.6%
COc1ccc(C(=O)NCCn2cc(SCC(=O)N3CCOCC3)c3ccccc32)cc1,-8,7,0.1,u,-11%,-9%,-1.1%
O=C1CCC([N+](=O)[O-])C(c2ccc(Br)cc2)N1 (stereo not given),-4,1,1.1,9%,10%,14%,-2.4%
O=C(NCc1ccccc1)C1=C[C@@H](c2csc3ccccc23)C[C@@H](OCCCCO)O1,14,13,1.4,x,-7%,-23%,-2.9%
O=C(ONc1ccc(N=NC(=O)c2ccccc2O)cc1)c1ccccc1,0,9,0.0,28%,-15%,-3%,1.2%

# The listing continues:
SMILES,TRPML1 blocker,TRPV1 PAM,Menin-MLL FL inh,gsp agonist,Sfp PPTase inh,gsp antagonist,ClpP mod
CN(C(=O)COC(=O)c1ccc(C(C)(C)C)cc1)C1CCS(=O)(=O)C1 (stereo not given),9,-8,x,-14%,x,0%,1.1%
N#Cc1ccc(OCCN2CCc3ccccc3C2)cc1,1,x,x,15%,x,-9%,-4.0%
Nc1cc(Cl)ccc1C(=O)OCC(=O)NC1CCCCCCC1,26,3,x,-8%,x,-1%,3.2%
Clc1ccc(Nc2ccccc2)nn1,13,-21,-0.1,u,7%,7%,x
Cc1cccc(OCCCC(=O)Nc2ccc(S(=O)(=O)N3CCCC3)cc2)c1,-6,11,5.6,u,1%,u,2.0%
OC(COc1ccc(F)cc1)CN1CCN(c2ccccc2F)CC1 (stereo not given),13,4,-6.3,-24%,13%,4%,-3.0%
Cn1c(C=O)c(-c2ccc3c(c2)OCCO3)c2ccccc21,26,4,x,13%,x,-16%,-24%
CC(=O)c1cc(Cl)ccc1OC(=O)c1ccco1,3,3,0.7,5%,2%,3%,1.4%
N#Cc1nc(COc2ccccc2)oc1N1CCCCCC1,1,-30,-2.0,-10%,10%,-5%,3.2%
CCOC(=O)C1CN(S(=O)(=O)c2ccccc2)C1,-23,-8,3.4,-11%,10%,-8%,1.2%
COc1ccc(C(CC(=O)O)NC(=O)C2CCCCC2)cc1 (stereo not given),-5,4,1.3,18%,-7%,-3%,-1.0%
FC(F)(F)c1cccc(N2CCN(Cc3cccnc3)CC2)c1,4,24,-1.1,13%,-28%,12%,-1.2%
N#C/C(=C\N1CCOCC1)C(N)=O,1,-2,1.0,12%[15.4 µM],14%,7%,x
Nc1cc(-c2ccccc2)n2c(n1)nc1ccccc12,-10,-15,4.5,-1%[15.4 µM],16%,-2%,-0.8%
Cn1cc(Cl)c(C(=O)NC(=S)Nc2sc3c(c2C#N)CCCCC3)n1,7,12,3.1,0%[15.4 µM],u,-13%,x
Cc1ccsc1/C=C1\SC(N2CC(C)OC(C)C2)=NC1=O (stereo not given),-14,-15,1.8,5%,5%,-10%,-2.6%
CN(Cc1cccs1)C(=O)CN1C(=O)c2ccccc2S1(=O)=O,8,-1,x,u,x,8%,-1.0%
Cc1nn(CC(=O)N2CCN(C)CC2)c(=O)c2ccccc12,-22,-41,-5.5,5%[15.4 µM],16%,8%,-0.3%
Cc1c(Cl)cccc1NC(=O)Nc1ccc(C(N)=O)cc1,-9,-16,0.9,-12%[15.4 µM],17%,-15%,x
CCC(=O)Oc1oc(-c2ccccc2)nc1C=Nc1ccc(C)cc1,-2,2,3.1,6%[15.4 µM],5%,10%,x
Oc1ccc(Br)cc1CNc1nccs1,x,-8,-6.1,-13%,9%,6%,0.7%
C=CCNC(=O)CSc1cc([N+](=O)[O-])cc(S(=O)(=O)Cc2ccccc2)c1,9,5,4.9,22%,u,-4%,1.0%
COc1cc(CCCN2CCNC[C@H]2Cc2cccc3ccccc23)cc(OC)c1OC,13,x,x,x,x,3%,1.7%
Cc1[nH]c2ccccc2c1C(=O)CN1C(=O)C(=O)N(CCC2=CCCCC2)C1=O,3,-1,x,12%,x,-24%,-0.3%
O=C(NCCCN1CCOCC1)c1cc(Cl)ccc1OCc1ccccc1,11,-19,x,-56%[inhibitor],10%,0%,1.4%

# Next section:
SMILES,TRPML1 blocker,TRPV1 PAM,Menin-MLL FL inh,gsp agonist,Sfp PPTase inh,gsp antagonist,ClpP mod
C/C(=N\NC1=NCCN1)c1ccc(N)c([N+](=O)[O-])c1,9,-8,4.5,4%[15.4 µM],-18%,-7%,3.3%
CC(C)(C)C(=O)Nc1ccc(C(=O)OC2CCCCC2)cc1,-6,-11,0.7,-17%,4%,-13%,0.0%
CC1Cc2ccccc2N1C(=O)CSc1ncccn1 (stereo not given),25,-4,x,-13%[15.4 µM],x,2%,x
O=C1CC(=O)NC(SCC(=O)Nc2ccccc2[N+](=O)[O-])=N1,12,7,13,-4%[15.4 µM],u,2%,5.0%
Cc1cc(C)cc(N(CC(=O)NC2CCCC2)C(=O)c2csnn2)c1,-19,26,-3.7,-25%,17%,10%,x
Cc1ccc(-c2n[nH]c(=O)c3ccccc23)cc1S(N)(=O)=O,-16,9,2.9,-13%[15.4 µM],9%,10%,-0.6%
CC(=O)C1=C(C)NC(=O)NC1c1cc(Br)ccc1OCC#N (stereo not given),-5,-3,-3.4,33%,5%,14%,1.3%
Cc1cc(-c2cccs2)nc(-n2cccc2)n1,3,4,3.7,-22%,1%,-34%,-3.2%
Cc1cc(NC(=O)c2cccc(S(=O)(=O)N3CCCC3)c2)no1,9,6,0.2,0%,17%,6%,-1.4%
O=C(C(Sc1ccccc1)c1ccccc1)N1CCOCC1 (stereo not given),15,-5,1.0,-22%,35%[activator],12%,-27%
O=C(O)CCN1C(=O)c2ccc(NC(=O)c3ccco3)cc2C1=O,5,-2,1.8,0%,11%,9%,-17%
CCOc1cc2c(C#N)c(N3CCNCC3)nc(N)c2c(N)n1,-3,-2,-1.1,u,11%,29%,35µM*
COc1ccc(S(=O)(=O)N2CC(C)N(C(=O)N3CCOCC3)C2)cc1 (stereo not given),5,-3,-3.6,15%[15.4 µM],-8%,7%,x

# Full records, looked up by structure.
# Shown for `CC1Cc2ccccc2N1C(=O)CSc1ncccn1` (stereo not given) : TRPML1 blocker: 25; TRPV1 PAM: -4; Menin-MLL FL inh: x; gsp agonist: -13%[15.4 µM]; Sfp PPTase inh: x; gsp antagonist: 2%; ClpP mod: x
# Shown for `O=C(O)CCN1C(=O)c2ccc(NC(=O)c3ccco3)cc2C1=O` : TRPML1 blocker: 5; TRPV1 PAM: -2; Menin-MLL FL inh: 1.8; gsp agonist: 0%; Sfp PPTase inh: 11%; gsp antagonist: 9%; ClpP mod: -17%

# Part of the list above with just TRPV1 PAM, gsp antagonist and Sfp PPTase inh:
smiles	TRPV1 PAM	gsp antagonist	Sfp PPTase inh
CC(C)(C)C(=O)Nc1ccc(C(=O)OC2CCCCC2)cc1	-11	-13%	4%
CC1Cc2ccccc2N1C(=O)CSc1ncccn1 (stereo not given)	-4	2%	x
O=C1CC(=O)NC(SCC(=O)Nc2ccccc2[N+](=O)[O-])=N1	7	2%	u

# Screening data: PubChem, National Center for Advancing Translational Sciences (NCATS)
